Screening results (PubChem BioAssay)
GIV Gai3 FP: GIV-Galpha-i interaction inhibition. P08753. 210,000 tested, 0.42% active. AID 1224905. Galpha-i3/FITC-GIV peptide fluorescence polarization, 90 min; hits give low values; scaled: aluminum fluoride 0%, vehicle 100%. percent of control (FP), % (concentration not given with the values);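 active = replicate mean at 85% of control or lower, very high polarization wells dropped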;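 note: wells of about 15 µL received 100 nL stock; the first replicate is given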
Target sequence (P08753 whole entry, looked up): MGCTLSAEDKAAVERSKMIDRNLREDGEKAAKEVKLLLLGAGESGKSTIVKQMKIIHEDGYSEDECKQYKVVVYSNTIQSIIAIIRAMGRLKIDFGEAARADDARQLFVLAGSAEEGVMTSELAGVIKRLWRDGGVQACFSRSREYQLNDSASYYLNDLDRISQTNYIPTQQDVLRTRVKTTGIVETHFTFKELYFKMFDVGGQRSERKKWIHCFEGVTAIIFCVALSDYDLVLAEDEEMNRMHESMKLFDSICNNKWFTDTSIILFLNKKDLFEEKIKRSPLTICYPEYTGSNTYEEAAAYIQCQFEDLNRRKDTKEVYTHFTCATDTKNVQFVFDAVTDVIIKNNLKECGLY
HCMV NEC inh: cytomegalovirus nuclear egress complex inhibition; HTRF UL50-UL53 interaction, normalized percent inhibition; inhibition, % (test concentration not listed); 190,000 tested, 0.15% active; AID 1918969;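 active = both replicates at 50% or more, plus weaker picks with an unusually low signal ratio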;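 note: stock transfer was 100 nL into about 20 µL; 0% = negative control wells and 100% = wells with untagged competitor protein; inactives centre near -12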
Sa growth inh: S. aureus growth inhibition | S. aureus RN4220 growth, OD600, 20 h, 42 °C; hits give low values | AID 720641 | 170,000 tested, 0.53% active | relative growth, % (no concentration beside the values);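 active = growth at 42 °C up to 50% and 20 or more points under that at 30 °C, or under 10% at both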;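 note: 300 nL library stock went into each well; scaled to the means of positive and negative controls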
Sa growth inh second temp: recorded beside Sa growth inh, whose call it bears; relative growth, %; measured here: growth at 30 °C;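 optical density after 20 h as mean of two plates; 100% = untreated growth and lower means inhibition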
* marks the source's active call; other numbers are inactive results; x = no result given; & = joins results of further samples.

SMILES | GIV Gai3 FP | HCMV NEC inh | Sa growth inh | Sa growth inh second temp
CCN(CC)C(=O)Oc1c(Br)cc(Br)c2ccc(C)nc12 | 102.4 | x | 99.2 | 69.1
CCOc1ccc(CCNC(=O)C(C)n2nc(C)n3c(cc4occc43)c2=O)cc1OCC (configuration not stated) | 104.0 | -9.1 | 103.8 | 86.7
COC(=O)C1CCN1CC1CCCO1 (configuration not stated) | x | -10.9 | 89.7 | 92.8
O=c1c2c(nc3nc(CNc4ccccc4F)[nH]n13)CCC2 | 118.9 | -9.4 | x | x
O=C1CC2(CCCCC2)Oc2ccc(OCC(=O)N3CCOCC3)cc21 | 100.7 | -6.5 | 92.5 | 87.3
CC1CCCCN1CCNC(=O)c1ccc(Cn2c(SCc3ccccc3)nc3cccnc32)cc1 (configuration not stated) | 107.6&110.1 | -33.0&-34.0 | 110.5 | 91.9
CCOc1ccc(CNC(=O)CCc2nnc3c4cc(-c5ccccc5)nn4ccn23)cc1 | 106.7 | -19.8 | x | x
CCC(=O)Nc1nnc(-c2ccco2)o1 | 103.4 | -38.3 | 90.3 | 76.1
CCc1nnc(NC(=O)CCC(=O)N2CC3(C)CC2CC(C)(C)C3)s1 (configuration not stated) | 109.7 | 8.7 | 111.5 | 105.6
CC(=O)Nc1cc(C(=O)O)ccc1S(=O)(=O)c1ccc(C)cc1 | 101.9 | -3.6 | 92.3 | 88.9
CC(=C1C(=O)c2ccccc2C1=O)N1CCC(C(N)=O)(N2CCCCC2)CC1 | 100.4 | -25.5 | 97.8 | 90.4
Fc1ccc(-c2ccc(SCc3nc(-c4ccc(F)cc4)no3)nn2)cc1 | 102.4 | -14.9 | x | x
CCCc1nn2c(=O)cc(COc3ccc(/C=C(\C#N)C(=O)NCc4ccco4)cc3)nc2s1 | 107.1 | -67.4 | 103.7 | 73.2
O=C(c1ccc2c(c1)N(Cc1cccc(Cl)c1)C(=O)c1ccccc1S2(=O)=O)N1CCCCCC1 | 98.3 | x | 104.3 | 89.7
CCc1cccc(N2C(=O)CCC2(C)C(=O)NC2CCCC2)c1 (configuration not stated) | 103.6 | -26.2 | 86.0 | 93.4
COC(=O)c1ccccc1NC(=O)c1ncoc1-c1ccc(OC)cc1 | 106.8 | -9.2 | x | x
CCc1ccc(-n2nnnc2-c2cn[nH]c2-c2ccccc2)cc1 | 99.4 | -8.4 | 90.9 | 84.4
O=C(Nc1cc2ccccc2s1)Nc1ccc(F)cc1F | 100.0 | 20.7 | 96.5 | 84.4
CCCN(C(=O)c1cc2c(=O)[nH]c3ccc(C)cc3c2s1)c1ccc(CC)cc1 | 104.9 | 1.5 | 84.4 | 85.5
COc1ccc(NS(=O)(=O)c2ccc3c(c2)N(C(C)=O)CCCS3)c(OC)c1 | 101.4 | -23.9 | x | x
CC1CC(C)CN(C(=O)Cn2c3ccccc3c3cn[nH]c(=O)c32)C1 (configuration not stated) | 100.7 | -5.6 | 98.1 | 74.7
CCc1ccc2nc(NC(=O)CCn3[nH]c(=O)ccc3=O)sc2c1 | x | -16.2 | 104.5 | 89.7
Nc1ccc(-c2nnc(-c3ccco3)o2)cc1 | 107.7 | -10.8 | 110.0 | 79.8
CCC(C)n1[nH]c(=O)c2c(C)cc(C)nc21 (configuration not stated) | 111.3 | -7.9 | x | x
CSc1nc2ccccc2c(=O)n1C1CCOC(C)(C)C1 (configuration not stated) | 105.0 | 7.2 | 85.3 | 98.8
COc1ccc(-c2nnc(Nc3ccc(Cl)cc3)c3ccccc23)cc1 | 98.5 | x | 97.3 | 90.5
CC1Nc2c(c(=O)oc3ccccc23)NC1=O (configuration not stated) | 109.7 | -90.2 | 91.1 | 77.7
O=C(Oc1cc(Cl)cc(Cl)c1)C12CC3CC(CC(C3)C1)C2 | 105.4 | -7.0 | 105.0 | 91.9
CC(C)(C)C1=NN(c2nc3ccc(Cl)cc3s2)C(=O)C1 | 113.0 | -4.4 | 58.6 | 46.7
O=C(CCCn1nc(-c2ccccc2)c2cc(Cl)ccc21)Nc1ccccc1F | 100.4 | 9.2 | x | x
O=C(CCn1c(=O)c2cccn2c2ccc(F)cc21)NC1CCCCC1 | 98.9 | -21.1 | 71.9 | 73.8
CS(=O)(=O)N1CCc2cc(C(=O)Nc3ccc(C(F)(F)F)cc3)ccc21 | 100.7 | -18.8 | 106.7 | 95.1
CC(=O)Nc1ccccc1N1CCOCC1 | 97.2 | -16.0 | x | x
COc1cccc(C(=O)c2cn(CC(=O)NCc3ccccc3Cl)c3nc(C)ccc3c2=O)c1 | 109.3 | x | 81.4 | 77.1
CC(=O)N(c1ccccc1)c1nc(CSc2nnnn2C)cs1 | x | -28.8 | 87.0 | 85.3
Cc1ccc(CN2CCSc3ccc(C(=O)Nc4ccc(C)cc4)cc32)cc1 | 107.5 | 5.7 | 94.0 | 110.7
O=C(/C=C/c1ccccc1)N1C(=O)OCC1c1ccccc1 (configuration not stated) | x | -4.4 | 92.3 | 88.7
Cc1cc(=O)[nH]c2nnc(SCc3ccccc3F)n12 | 98.2 | x | 72.8 | 92.4
Cc1cc(C)cc(CC(c2nc3ccccc3[nH]2)C(C)c2nc3ccccc3[nH]2)c1 (configuration not stated) | x | 0.6 | 94.5 | 116.6
CCOC(=O)COc1ccc([N+](=O)[O-])cc1-c1ccnc2cc(-c3ccc(C)cc3)nn12 | 103.5 | -1.7 | 97.0 | 92.1
Cc1cc(C)c2oc(C(=O)NCCc3ccc(S(N)(=O)=O)cc3)cc(=O)c2c1 | 102.4 | -14.9 | 91.5 | 84.2
CC(C)(C)c1cc(-c2ccccc2)c(C#N)c(N)n1 | 96.9 | 4.6 | 102.1 | 117.2
CCOC(=O)c1sc(-c2ccccc2)nc1CSc1nccn1C | 105.2 | -8.0 | 116.8 | 80.7
CS(=O)(=O)N(Cc1ccccc1)Cc1ccccc1 | x | -0.1 | 96.3 | 94.0
COc1ccccc1CNC(=O)CN1C(=O)COc2ccc(S(=O)(=O)N3CCCCC3)cc21 | 111.2 | x | 115.8 | 86.1
CCOC(=O)/C(=C\Nc1ccc(F)c(Cl)c1)S(=O)(=O)c1ccc(Cl)cc1 | 102.6 | 8.1 | 85.6 | 89.3
CCN(CC)C(=O)c1c[nH]c2ccc(F)cc2c1=O | 101.4 | 5.7 | x | x
CNC(=O)c1cc(C#N)c(SCC(=O)O)nc1N | x | -35.3 | 87.9 | 90.3
COC(=O)CC(=O)c1cc2ccccc2oc1=O | x | -73.0 | 91.8 | 88.5
COc1ccc(OCC(=O)NCC2(N3CCOCC3)CCCCC2)cc1 | 104.2 | -5.7 | x | x
O=P1(NCc2ccco2)C=C(c2ccccc2)SC(c2ccccc2)=C1 | x | -4.9 | 86.9 | 66.6
O=C(CSc1nc2ccccc2nc1N1CCOCC1)N1CCC2(CC1)OCCO2 | 101.6 | x | 104.3 | 89.0
CC(=O)N1CCOc2cc(S(=O)(=O)NC3COc4ccccc4C3)c(C)cc21 (configuration not stated) | 103.3 | -10.8 | x | x
Cc1ccc(C(=O)CCC(=O)N2CCCCCC2)cc1 | x | -14.9 | 122.9 | 96.3
O=C(C1CCCCN1S(=O)(=O)c1ccccc1)N1CCCC1 (configuration not stated) | x | -13.1 | 114.0 | 89.4
CC(=O)Nc1ccc(NC(=O)c2ccc3c(c2)NC(=O)c2ccccc2S3)cc1 | 106.4 | -5.1 | 100.5 | 89.2
COc1ccc(NC(=O)c2ccc3c(c2)c(C)c(C)n3Cc2ccc(F)cc2)cc1 | 102.9 | x | 91.4 | 89.4
CCCc1nc(=S)c2ccccc2[nH]1 | 101.5 | -37.8 | 85.2 | 76.0
CCC(C)NC(=O)c1cc(Nc2ccc(C(C)C)cc2)nc2ccccc12 (configuration not stated) | 100.4 | x | 89.6 | 90.4
COc1ccc(OC)c(Nc2nc(-c3c(C)nc4sccn34)cs2)c1 | x | -1.4 | 99.5 | 89.7
The list goes on:
SMILES | GIV Gai3 FP | HCMV NEC inh | Sa growth inh | Sa growth inh second temp
COc1ccc(-n2c(SCC(=O)c3c(C)[nH]c4ccccc34)nc3cc(C(=O)NC(C)C)ccc3c2=O)cc1 | 99.0 | -5.9 | x | x
Cc1cccc(NC(=O)C2CCN(c3nnc(-n4c(C)ccc4C)s3)CC2)c1C | 110.7 | 2.9 | 88.8 | 86.2
COc1cc(OC)c(C2C=C(c3ccc(C)cc3)Nc3c(C(=O)Nc4ccccc4)cnn32)cc1OC (configuration not stated) | 111.4 | x | 97.9 | 90.5
CCOc1ccc(OCC)c(CC2OC(c3ccccc3)=NC2=O)c1 (configuration not stated) | x | -32.0 | 117.7 | 85.3
O=C1CCCc2[nH]c(=O)c(-c3nc(-c4cccc([N+](=O)[O-])c4)cs3)cc21 | 99.2 | -30.5 | 97.2 | 87.4
O=C(Nc1ccc(N2CCCCC2)cc1)c1cccnc1 | 107.7 | -0.5 | 72.9 | 84.6
O=C(Oc1ccccc1)C1CCCN(C2=NS(=O)(=O)c3ccccc32)C1 (configuration not stated) | x | -18.6 | 103.7 | 91.0
Cc1nc2ccc(N=Cc3ccccc3O)cc2s1 | x | -11.0 | 87.6 | 68.5
Cc1ccc(S(=O)(=O)N2CCN(Cc3nc4ccc(C)cc4o3)CC2)c(C)c1 | 102.1 | x | 116.2 | 100.1
COC(=O)COc1ccc(S(=O)(=O)Nc2ccc(F)c(Cl)c2)cc1 | 106.8 | 0.6 | 111.1 | 97.8
O=C(c1ccc2c(c1)N(Cc1ccccc1F)C(=O)c1ccccc1S2=O)N1CCN(c2ccccc2)CC1 (configuration not stated) | 101.8 | -30.8 | 103.7 | 89.2
O=C(NC1CCCC1)C1c2ccccc2Oc2ccccc21 | x | -20.3 | 102.2 | 86.4
COc1cccc(C2C(C(N)=O)=C(C)Nc3ncnn32)c1 (configuration not stated) | 101.3 | -12.6 | 98.6 | 89.9
COCCNC(=O)c1cc(-c2cccc(Cl)c2)on1 | 98.9 | 9.6 | 92.5 | 110.0
CC1=C(C(=O)Nc2ccc(Br)cn2)C(c2cccc(Cl)c2)C2=C(CC(C)(C)CC2=O)N1 (configuration not stated) | 108.0 | 6.4 | x | x

As a short view, part of the list above:
SMILES | GIV Gai3 FP | HCMV NEC inh | Sa growth inh | Sa growth inh second temp
O=C(NC1CCCC1)C1c2ccccc2Oc2ccccc21 | x | -20.3 | 102.2 | 86.4
COc1cccc(C2C(C(N)=O)=C(C)Nc3ncnn32)c1 (configuration not stated) | 101.3 | -12.6 | 98.6 | 89.9
COCCNC(=O)c1cc(-c2cccc(Cl)c2)on1 | 98.9 | 9.6 | 92.5 | 110.0
CC1=C(C(=O)Nc2ccc(Br)cn2)C(c2cccc(Cl)c2)C2=C(CC(C)(C)CC2=O)N1 (configuration not stated) | 108.0 | 6.4 | x | x

Other compounds.
SMILES | GIV Gai3 FP | HCMV NEC inh | Sa growth inh | Sa growth inh second temp
O=C(O)CCc1ccc(-c2ccc(F)cc2)n1-c1cc(Cl)ccc1O | 101.9 | -18.2 | x | x
O=C(CCNS(=O)(=O)c1ccc2c(c1)CCN2C(=O)C1CC1)Nc1ccc(Cl)cc1 | 103.9 | x | 98.5 | 84.3
O=C(Nc1nnc(-c2ccncc2)s1)C1c2ccccc2Oc2ccccc21 | 104.3 | -10.6 | 86.6 | 75.4
Cc1cccc(COn2cccc(C(=O)Nc3ccc(Cl)cc3C(F)(F)F)c2=O)c1 | 106.7 | x | 106.3 | 90.8
C=C1c2ccccc2N=C(SCC(=O)Nc2ccc(OC(F)F)cc2)N1C | x | -6.1 | 68.2 | 68.9
Cc1cc(C)cc(N2C(=O)c3cc4ccsc4n3CC2(C)C(=O)NC2CCCC2)c1 (configuration not stated) | 104.9 | -34.4 | x | x
CCOc1ccc(-c2cn3c(n2)sc2cc(C(=O)NCCC4=CCCCC4)ccc23)cc1 | 113.3 | x | 97.8 | 75.7
CN(C)C1(CNC(=O)CNC(=O)c2ccccc2Br)CCCCC1 | x | 6.7 | 102.8 | 100.9
Cc1ccc(S(=O)(=O)CCC(=O)c2ccc(O)cc2O)cc1 | 101.6 | -7.9 | -0.2* | -0.4*
O=C(NCc1cccc(Br)c1)c1ccc(-n2cnc3cccnc32)cc1 | 100.5 | x | 103.1 | 92.5
CCCCN1C(=O)C2C(c3ccccc3O)NC(C)(C(=O)O)C2C1=O (configuration not stated) | x | -3.3 | 92.2 | 90.8

One compound at a time, as listed above.
CCOc1ccc(-c2cn3c(n2)sc2cc(C(=O)NCCC4=CCCCC4)ccc23)cc1 across the screens: GIV Gai3 FP: 113.3; HCMV NEC inh: x; Sa growth inh: 97.8; Sa growth inh second temp: 75.7
CCCCN1C(=O)C2C(c3ccccc3O)NC(C)(C(=O)O)C2C1=O (configuration not stated) across the screens: GIV Gai3 FP: x; HCMV NEC inh: -3.3; Sa growth inh: 92.2; Sa growth inh second temp: 90.8
O=C(CCNS(=O)(=O)c1ccc2c(c1)CCN2C(=O)C1CC1)Nc1ccc(Cl)cc1 across the screens: GIV Gai3 FP: 103.9; HCMV NEC inh: x; Sa growth inh: 98.5; Sa growth inh second temp: 84.3
